Compound activity (PubChem BioAssay)
FLuc inh = inhibitors of firefly (Photinus pyralis) luciferase. hit rate 2.5% among 76,000. Potency, µM (doses to about 115 µM), inactives show at the top dose activity change, negative = inhibition, usual class: inhibitors. AID 1347043. P08659. purified P. pyralis luciferase, luminescence, biochemical; further: potency means the concentration at half of the fitted maximal effect; nearly all actives have a fitted effect of over 65% in size
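Biochemical qHTS: compound (6-point titration) added to 10uM D-luciferin plus 10uM ATP in Tris acetate pH 7.5 buffer with Mg, Tween-20 and BSA, then purified enzyme at 10nM; light output imaged.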
HEK293 tox = kills HEK 293 cells; HEK 293 viability, ATP luminescence (CellTiter-Glo), 48-72 h; Potency, µM (titrated, usually from 115 µM), inactives show at the highest dose activity change, negative = cytotoxicity, most hits filed as inhibitors; hit rate 6.6% among 94,000; further: potency means the concentration at half of the fitted maximal effect; nearly all actives have a fitted effect of over 60% in size
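Luminescence from cellular ATP, measured with CellTiter-Glo, indicates HEK 293 viability. Cells plated at 250 cells/well are treated with compound for 48 or 72 hr at 37 degree Celsius before reagent addition.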
NIH3T3 tox = NIH 3T3 cell cytotoxicity; NIH 3T3 viability, CellTiter-Glo ATP luminescence, 48-72 h; Potency, µM (doses to about 96.7 µM), for the others: top-dose activity change, negative = cytotoxicity, usual class: inhibitors; hit rate 4.3% among 94,000; AID 1345082; further: potency means the concentration at half of the fitted maximal effect; nearly all actives have a fitted effect of over 55% in size
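Viability of NIH 3T3 cells after 48 or 72 hr compound treatment at 37 °C was assessed by CellTiter-Glo, with luminescence imaged following a 10 min room-temperature step.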
IP6K1 inhibitor = blocks human inositol hexakisphosphate kinase 1 | Q92551 | hit rate 0.81% among 140,000 | activity change, % (series mostly up to about 58 µM) | AID 1645851 | IP6K1 kinase, ADP-Glo luminescence, 2 h; active compounds read low; in the data active means activity change below about -25%
Target sequence (Q92551 whole entry, looked up): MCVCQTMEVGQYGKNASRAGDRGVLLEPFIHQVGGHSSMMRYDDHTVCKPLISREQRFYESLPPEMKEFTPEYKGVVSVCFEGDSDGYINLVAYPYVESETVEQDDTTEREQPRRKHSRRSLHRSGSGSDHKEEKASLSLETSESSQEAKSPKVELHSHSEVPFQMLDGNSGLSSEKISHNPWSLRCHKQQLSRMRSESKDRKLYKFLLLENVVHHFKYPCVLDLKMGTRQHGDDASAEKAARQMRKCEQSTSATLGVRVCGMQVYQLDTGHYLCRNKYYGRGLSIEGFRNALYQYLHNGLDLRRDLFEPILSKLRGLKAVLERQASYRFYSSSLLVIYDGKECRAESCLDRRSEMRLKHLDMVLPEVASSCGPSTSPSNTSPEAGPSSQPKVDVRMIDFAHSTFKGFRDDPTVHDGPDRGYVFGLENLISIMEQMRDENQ
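ADP-Glo luminescence measures ADP made by human IP6K1 during a 2 h RT reaction with ATP/IP6 (mix at 1.3 mM/130 uM); top library doses 57.5 and 19.1 uM final.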
SNCA expr inh = inhibitors of alpha-synuclein (SNCA) gene expression | HEK-293 SNCA-luciferase knock-in, luminescence, 24 h | Potency, µM (doses to about 57.2 µM), without a hit: at the highest dose activity change, negative = inhibition, hits mostly inhibitors | hit rate 0.17% among 140,000 | AID 1671194;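 further: potency means the concentration at half of the fitted maximal effect; plate controls were DMSO cells for no effect and cell-free wells for full effect; nearly all actives have a fitted effect of over 45% in size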
SNCA viab count = reduces viability of HEK-293 SNCA reporter cells; HEK-293-SNCA-luc viability, GF-AFC fluorescence, 24 h; Potency, µM (highest dose often 57.1 µM), without a hit: at the highest dose activity change, negative = cytotoxicity, most hits filed as cytotoxic; hit rate 0.12% among 150,000; AID 1671193;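 further: potency means the concentration at half of the fitted maximal effect; 0% = DMSO-treated cells and -100% = medium-only wells without cells; nearly all actives have a fitted effect of over 30% in size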
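Cytotoxicity counterscreen: after 24 h compound treatment of genome-edited SNCA-luciferase HEK-293 cells, live-cell protease substrate GF-AFC read by fluorescence after 30 min; activity scaled between DMSO (0%) and medium-only (-100%), curves Hill-fitted.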
Numbers without * were called inactive; i = inactive; ? = inconclusive; / = no result given; [ ] = another dose, or the depositor's remark. Unless noted, the call rests on the fitted dose curve; in most records, active means well fitted curve in the direction sought with a large enough effect; inconclusive means small, poorly fitted or top-dose-only effect, or another doubt; inactive means no such curve, though single readings can be large; an effect the other way counts as inactive or inconclusive. Unless noted, on the % scale 0 is the no-effect control and ±100 the full control effect. The list is partial; rates above refer to the full screens.

Labels used below: A = FLuc inh; B = HEK293 tox; C = NIH3T3 tox; D = IP6K1 inhibitor; E = SNCA expr inh; F = SNCA viab count
1: C[S+](=O)([O-])c1ccc(-c2nc(C(=O)NCc3cccs3)n3ccccc23)cc1
  A = -12% | B = -16% | C = -26% | D = 13 | E = 18% | F = 2%
2: CCCCCCCCCCCCCCCCCCN(C)C
  A = / | B = / | C = / | D = 5 | E = -34%[25.6 µM] | F = 66%[23.9 µM]
3: Cc1oc2ccn(Cc3ccc(F)cc3)c(=O)c2c1C(=O)N1CCN(c2ccccn2)CC1
  A = -16% | B = ? | C = -35% | D = 12 | E = -15% | F = -15%
4: Cc1sc2ccn(C)c(=O)c2c1C(=O)NCc1cccc(F)c1
  A = -2% | B = 11% | C = i | D = 1 | E = 3% | F = 3%
5: Cc1cccnc1CN1CCN(C(=O)Cn2nnnc2CN2CCCC2)CC1
  A = -6% | B = -6% | C = 3% | D = 1 | E = -8% | F = -3%
6: CCOCCn1nc(C)cc1C(=O)N1C[C@@H](C)[C@](O)(C2CC2)C1
  A = 9% | B = 4% | C = i | D = -10 | E = -18% | F = -8%
7: COCc1ccc(C(=O)N2CCCN(C)C3(CCN(C)CC3)C2)o1
  A = -3% | B = -3% | C = -3% | D = -8 | E = -16% | F = 7%
8: Cc1ccc(CN2CCC3(CC2)CCN(Cc2ccco2)CC3CO)s1 (stereo not given)
  A = -7% | B = ? | C = -20% | D = -1 | E = 0% | F = -9%
9: CCOCCn1nc(C)cc1C(=O)N1C[C@@H](CN2CCCCC2)[C@@H](CO)C1
  A = -4% | B = 0% | C = 5% | D = -9 | E = 9% | F = 8%
10: COc1ccccc1CNC(=O)CN1CCCC(CO)(CC2CC2)C1 (stereo not given)
  A = 0% | B = -16% | C = -24% | D = 3 | E = -12% | F = 5%
11: CN1CCNc2nc(COc3ccc(Oc4ccccc4)cc3)n(Cc3ccccc3)c2C1=O
  A = -1% | B = ? | C = -21% | D = 5 | E = -24% | F = -1%
12: CCCC1=CC2=C(CO1)C(=O)C(C)(O)C(OC(=O)c1c(C)cc(OC)cc1O)C2 (stereo not given)
  A = / | B = / | C = / | D = 10 | E = / | F = 2%[23.9 µM]
13: CCc1nc(-c2c3n(c(=O)n(Cc4cc(F)ccc4F)c2=O)CCCCC3)no1
  A = 4% | B = 1% | C = -4% | D = 18 | E = 20% | F = -11%
14: CN1C(=O)Cc2cc(C(=O)NC3CCCCCC3)ccc21
  A = ? | B = -2% | C = -8% | D = 7 | E = 74%[activator] | F = 6%
15: COc1ccc(-c2noc(-c3nc(Cc4cccc(F)c4)no3)n2)cc1OC
  A = 13% | B = -1% | C = -2% | D = 13 | E = 11% | F = 4%
16: Cc1ccc(S(=O)(=O)N2CCOC3(CNCCOC3)C2)cc1F (stereo not given)
  A = 3% | B = 4% | C = -9% | D = 5 | E = -20% | F = 1%
17: CCn1ccc2oc(C)c(C(=O)N3CCN(c4ccccc4Cl)CC3)c2c1=O
  A = -6% | B = -18% | C = i | D = 3 | E = 38%[activator] | F = 11%
18: C/C=C/C1=CC2=C(CO1)C(=O)C(C)(O)C(OC(=O)c1c(C)cc(OC)cc1O)C2 (stereo not given)
  A = / | B = / | C = / | D = 3 | E = / | F = -10%
19: O=C(Nc1ccsc1)N[C@H]1C[C@H]2C(=O)NC[C@@H](CCC(=O)N3CCOCC3)N2C1
  A = -14%[172 µM] | B = -5%[172 µM] | C = -25%[174 µM] | D = -7 | E = -4%[87.6 µM] | F = 3%[87.6 µM]
20: Cn1cnc(S(=O)(=O)N2CCCC(Cc3noc(-c4cccnc4)n3)C2)c1 (stereo not given)
  A = -12% | B = -25% | C = -30% | D = -8 | E = 12% | F = 7%
21: O=C(CCNc1c(-c2ccc(F)cc2)nc2cnccn12)NC1CCCC1
  A = 12% | B = -1% | C = 4% | D = -3 | E = 2% | F = ?
22: CNC(=O)[C@@H]1CN(Cc2cnn(C)c2)C[C@H]1COC
  A = 8% | B = -22% | C = -1% | D = 0 | E = 9% | F = 15%
23: Cc1[nH]nc2c1C(c1c(F)cccc1F)C(C#N)=C(N)O2 (stereo not given)
  A = -5% | B = -30% | C = -4% | D = -1 | E = -6% | F = 0%
24: O=C(NC1CCCCC1)[C@@H]1C[C@@H](O)CN1C1CCN(C(=O)c2cccc3nccnc23)CC1
  A = -1% | B = -9% | C = -3% | D = 6 | E = -14% | F = -14%
25: C[C@H](O)c1c(-c2ccc(Cl)cc2)noc1C(=O)N(C)C
  A = 0%[172 µM] | B = -4%[172 µM] | C = 0%[174 µM] | D = 3 | E = 1%[87.6 µM] | F = 9%[87.6 µM]
26: COc1ccc(OC)c(CNC(=O)c2c(C)sc3ccn(C)c(=O)c23)c1
  A = -12% | B = 0% | C = -9% | D = 0 | E = -16% | F = 6%
27: O=C(O)c1ccc(C2CCCN(C(=O)CCCn3cncn3)C2)cc1 (stereo not given)
  A = 3% | B = -3% | C = -1% | D = 31 | E = -5% | F = 4%
28: Cc1ccccc1-n1cc(-c2ccnc(NC3CCN(C)CC3)n2)cn1
  A = 0% | B = ? | C = -23% | D = 11 | E = -3% | F = 6%

Profiles, quoted from the list. Screens in order: FLuc inh, HEK293 tox, NIH3T3 tox, IP6K1 inhibitor, SNCA expr inh, SNCA viab count
CCOCCn1nc(C)cc1C(=O)N1C[C@@H](CN2CCCCC2)[C@@H](CO)C1 across the screens: -4%, 0%, 5%, -9, 9%, 8%
C/C=C/C1=CC2=C(CO1)C(=O)C(C)(O)C(OC(=O)c1c(C)cc(OC)cc1O)C2 (stereo not given) across the screens: /, /, /, 3, /, -10%

Structural class, the compounds so far containing sulfur.
Labels used below: A = FLuc inh; B = HEK293 tox; C = NIH3T3 tox; D = IP6K1 inhibitor; E = SNCA expr inh; F = SNCA viab count
1: C[S+](=O)([O-])c1ccc(-c2nc(C(=O)NCc3cccs3)n3ccccc23)cc1
  A = -12% | B = -16% | C = -26% | D = 13 | E = 18% | F = 2%
4: Cc1sc2ccn(C)c(=O)c2c1C(=O)NCc1cccc(F)c1
  A = -2% | B = 11% | C = i | D = 1 | E = 3% | F = 3%
8: Cc1ccc(CN2CCC3(CC2)CCN(Cc2ccco2)CC3CO)s1 (stereo not given)
  A = -7% | B = ? | C = -20% | D = -1 | E = 0% | F = -9%
16: Cc1ccc(S(=O)(=O)N2CCOC3(CNCCOC3)C2)cc1F (stereo not given)
  A = 3% | B = 4% | C = -9% | D = 5 | E = -20% | F = 1%
19: O=C(Nc1ccsc1)N[C@H]1C[C@H]2C(=O)NC[C@@H](CCC(=O)N3CCOCC3)N2C1
  A = -14%[172 µM] | B = -5%[172 µM] | C = -25%[174 µM] | D = -7 | E = -4%[87.6 µM] | F = 3%[87.6 µM]
20: Cn1cnc(S(=O)(=O)N2CCCC(Cc3noc(-c4cccnc4)n3)C2)c1 (stereo not given)
  A = -12% | B = -25% | C = -30% | D = -8 | E = 12% | F = 7%
26: COc1ccc(OC)c(CNC(=O)c2c(C)sc3ccn(C)c(=O)c23)c1
  A = -12% | B = 0% | C = -9% | D = 0 | E = -16% | F = 6%
